Rango-impB inh – qHTS Assay for Inhibitors of Rango (Ran-regulated importin-beta cargo) - Importin beta complex formation. Potency, µM (highest dose often 92.2 µM), inactives show at the highest dose inhibition of complex formation. Importin subunit beta-1 (Homo sapiens), Q14974. 340,000 compounds, 0.031% hits. Rango CFP/YFP FRET sensor + importin beta, 45 min. AID 540263, 2011; active = rising FRET ratio curve, often small or poorly fitted; inconclusive = mostly compound fluorescence or quenching in the first reads; inactive = flat curves in all reads;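 also: potency is read from the fitted curve at half-maximal effect; 0% = DMSO wells and 100% = buffer wells lacking importin beta; nearly all actives have a fitted effect of over 15% in size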
Target sequence (Q14974 whole entry, looked up): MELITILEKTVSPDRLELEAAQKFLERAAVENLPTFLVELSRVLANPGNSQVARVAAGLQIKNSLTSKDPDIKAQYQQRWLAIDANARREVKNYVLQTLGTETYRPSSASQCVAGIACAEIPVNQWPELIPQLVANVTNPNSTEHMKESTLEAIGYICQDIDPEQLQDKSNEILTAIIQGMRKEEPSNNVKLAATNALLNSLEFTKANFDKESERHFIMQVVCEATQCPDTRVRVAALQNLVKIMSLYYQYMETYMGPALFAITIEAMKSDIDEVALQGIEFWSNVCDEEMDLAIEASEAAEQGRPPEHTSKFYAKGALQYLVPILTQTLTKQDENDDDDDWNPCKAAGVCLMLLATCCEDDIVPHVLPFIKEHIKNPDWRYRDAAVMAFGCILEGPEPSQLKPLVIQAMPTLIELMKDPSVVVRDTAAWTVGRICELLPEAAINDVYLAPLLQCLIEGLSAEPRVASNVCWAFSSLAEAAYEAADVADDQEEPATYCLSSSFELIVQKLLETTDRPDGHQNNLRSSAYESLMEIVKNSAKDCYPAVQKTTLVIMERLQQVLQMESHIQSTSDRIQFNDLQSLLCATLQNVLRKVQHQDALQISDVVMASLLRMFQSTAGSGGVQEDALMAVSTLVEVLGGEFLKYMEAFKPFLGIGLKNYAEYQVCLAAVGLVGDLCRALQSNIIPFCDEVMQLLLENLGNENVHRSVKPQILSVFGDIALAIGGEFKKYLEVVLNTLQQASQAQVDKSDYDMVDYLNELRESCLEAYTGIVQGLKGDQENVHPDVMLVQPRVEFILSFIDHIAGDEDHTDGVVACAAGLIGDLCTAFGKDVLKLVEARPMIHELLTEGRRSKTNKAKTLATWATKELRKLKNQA
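FRET biosensor Rango (snurportin 1 IBB between N-terminal EYFP and C-terminal Cerulean), 50 nM in PBS/1 mM DTT/0.02% Tween-20/0.1% BSA, preincubated 5 min RT with compound; 0.125 microM importin beta added, 45 min RT, CFP/YFP FRET ratio read.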
Rango release inh – qHTS Assay for Inhibitors of RanGTP induced Rango (Ran-regulated importin-beta cargo) - Importin beta complex dissociation | AID 540253, 2011 | 340,000 compounds, 0.071% hits | Potency, µM (series often up to 46.1 µM), for the others: at the top dose activity change, negative = inhibition | Biochemical FRET Rango-importin beta, RanGTP-induced dissociation; active means falling FRET ratio curve, often poorly fitted, with flat reads before Ran was added; inconclusive means other falling curves, or compound fluorescence or quenching; inactive means flat or rising ratio curve;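 also: potency is read from the fitted curve at half-maximal effect; % of control where 0% means no effect; nearly all actives have a fitted effect of over 45% in size; -100% = wells without RanGTP and RCC1; the record marks most hits as doubtful in a second field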
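FRET read at 45 min, room temperature: inhibitors block the CFP/YFP signal rise when RanGTP (0.6 uM Ran, 2 mM GTP, 0.2 uM RCC1) frees Rango (0.1 uM) from importin beta (0.25 uM). Pre-read after 5 min compound exposure flags interference.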
GLA inh pH 4.5 – qHTS Assay for Inhibitors of Human alpha-Galactosidase at pH 4.5; Alpha-galactosidase A (Homo sapiens), P06280; 230,000 tested, under 10 active; activity change, negative = inhibition, % at 105 µM; AID 1467, 2008; purified enzyme, 4-MU-alpha-Gal fluorescence, pH 4.5; inconclusive = small, poorly fitted or top-dose-only inhibition, or a rising curve; inactive = flat fitted curve, though single readings scatter; no compound was filed as active;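 also: 0% = full activity with enzyme and -100% = basal without enzyme; dose as in the result columns while the protocol names 77 µM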
miR-21 FLuc – qHTS Assay for Modulators of miRNAs and/orActivators of miR-21; HeLa miR-21 FLuc reporter, luciferase, 48 h; Potency, µM (doses to about 38.3 µM), for the others: at the top dose reporter change, positive = more light; 340,000 tested, under 10 active; AID 2288, 2010; active = well fitted rising curve with a large enough effect; inconclusive = small, poorly fitted or top-dose-only effect; inactive = no such curve, though single readings can be large or run the other way;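 also: % of control where 0% means no effect; miR-21 action dims this reporter so a rising signal means less miR-21 action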
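HeLa cells stably expressing CMV-driven firefly luciferase with a downstream miR-21 binding sequence, endogenously expressing miR-21, were treated with titrations (up to about 40uM final) for 48 hours at 37 degree Celsius. Luciferase luminescence was read after lysis.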
Active calls of the source: *; ? = inconclusive; · = not tested or not shown; & = joins results of further samples. The list is partial (hit frequency here may not be typical).

1) CCOC(=O)NC1C=CS(=O)(=O)C1 (stereo not given)
2) O=C(NCc1ccco1)c1ccccc1
3) Cc1ccc(S(=O)(=O)Nc2cccc(C(=O)N3CCOCC3)c2)c(C)c1NS(C)(=O)=O
4) N/C(=N\S(=O)(=O)c1ccc(Cl)cc1)N1CCOCC1
5) CC(C)c1ccc(N2C(=O)[C@@H]3Cc4ccccc4CN3C2=O)cc1
6) CCOC(=O)COc1ccccc1C1Nc2ccccc2C(=O)N1c1cccc(Cl)c1 (stereo not given)
Compound	1	2	3	4	5	6
Rango-impB inh	-0.2%	0.5%	0.1%	-2.1%	-2.5%	-3.2%
Rango release inh	1%	-9%	-5%	7%	2%	-22%
GLA inh pH 4.5	1	·	·	3	1	-14
miR-21 FLuc	0%	-2%	0%	-2%	-17%	-66%

7) COc1ccccc1N1CCN(C(=O)CCc2nnc3ccc(N4CCCC4)nn23)CC1
8) CCOC(=O)c1c(Nc2ccccc2N)cc(C)nc1C
9) O=C(CCSc1nnc2ccc3ccccc3n12)Nc1ccc(F)cc1
10) CCOC(=O)C1=c2/c(=C/c3ccccc3OC)c(N)c(C#N)n2C(=O)C(c2ccccc2OC)S1 (stereo not given)
11) CCC1CCCCN1CCCNC(=O)CCNC(=O)Cn1cnc2ccccc2c1=O (stereo not given)
12) Cc1ccnc(NCc2ccc(Cl)cc2)c1
Compound	7	8	9	10	11	12
Rango-impB inh	-2.4%	5.1%	-1.1%	·	-4.8%	2.9%
Rango release inh	-10%	-9%	3%	·	-4%	-2%
GLA inh pH 4.5	·	5	5	-8	·	·
miR-21 FLuc	9%	-1%	-6%	0%	-4%	-9%

13) O=C(c1ccc2snnc2c1)N1CCN(c2ccccn2)CC1
14) Cc1cc(C)nc(Oc2ccc(Br)cc2Br)n1
15) CCn1nc(C(=O)Nc2ccc(S(=O)(=O)Nc3nccs3)cc2)c2ccccc2c1=O
16) Cc1cnc(C(=O)OCC(=O)N2CCc3ccccc32)cn1
17) CCc1sc(C(=O)Nc2cc(S(=O)(=O)N3CCOCC3)ccc2OC)cc1C
18) COc1ccc(OCCNC(=O)c2ccc(C)cc2)cc1
Compound	13	14	15	16	17	18
Rango-impB inh	5.6%	-11%	0.9%	-2.7%	-0.5%	2.6%
Rango release inh	-16%	-8%	?	13%	-6%	-4%
GLA inh pH 4.5	9	11	-1	-11	·	·
miR-21 FLuc	-1%	-53%	-2%	-1%	·	-33%

19) C/C(=N/NS(C)(=O)=O)c1ccc2ccccc2c1
20) NC1=NC[C@@H](Cc2ccc(O)cc2)N1CCC12CC3CC(CC(C3)C1)C2
21) CCNS(=O)(=O)c1ccc(NC(=O)Cn2cc([N+](=O)[O-])cn2)cc1
22) Cc1c(Cl)cccc1NC(=O)[C@@H](NC(=O)c1ccccc1Cl)C(C)C
23) CCC(C(=O)NC1CCN(C)CC1)c1ccccc1 (stereo not given)
24) CCN(CC(=O)Nc1cc(Cl)ccc1C)C(=O)Cc1ccsc1
Compound	19	20	21	22	23	24
Rango-impB inh	-1.5%	?	4.3%	-2.3%	4.6%	2.7%
Rango release inh	4%	-19%	2%	4%	-16%	15%
GLA inh pH 4.5	9	·	-1	1	·	·
miR-21 FLuc	-17%	·	0%	-4%	-2%	·

25) Cc1cccc(NC(=O)NC2(C(=O)NCc3ccco3)CCCCC2)c1
26) COc1cc(/C=C(\C#N)C(=O)Nc2cccc(C(=O)O)c2)ccc1OCc1ccc(Cl)cc1
27) Cc1cc(=O)n(CCCc2ccccc2)[nH]1
28) O=C(NC1CC1)c1c(O)c2ccccc2[nH]c1=O
29) O=C(CNC(=S)N(Cc1ccccc1)Cc1cccs1)NCc1ccc(F)cc1
30) CC(C)n1c(-c2ccc(C(C)(C)C)cc2)n[nH]c1=S
Compound	25	26	27	28	29	30
Rango-impB inh	-0.4%	-4.3%	0.5%	-1.4%	-6.6%	6.2%
Rango release inh	1%	13%	-3%	-2%	4%	14%
GLA inh pH 4.5	·	·	·	·	-10	3
miR-21 FLuc	-3%	-55%	·	-8%	14%	3%

An excerpt from above in order of SMILES length, ascending:
30) CC(C)n1c(-c2ccc(C(C)(C)C)cc2)n[nH]c1=S
25) Cc1cccc(NC(=O)NC2(C(=O)NCc3ccco3)CCCCC2)c1
26) COc1cc(/C=C(\C#N)C(=O)Nc2cccc(C(=O)O)c2)ccc1OCc1ccc(Cl)cc1
Compound	30	25	26
Rango-impB inh	6.2%	-0.4%	-4.3%
Rango release inh	14%	1%	13%
GLA inh pH 4.5	3	·	·
miR-21 FLuc	3%	-3%	-55%

The listing continues:
31) CC1(C)Cc2c(cnn2-c2ccc(F)cc2)C(NC(=O)c2ccco2)C1 (stereo not given)
32) Cc1ccc(C(=O)C2CCN(CC(=O)NCc3ccc(F)cc3)CC2)cc1
33) Cc1ccc(C(=O)Nc2scc(-c3ccccc3)c2C(=O)O)o1
34) CC(=O)Nc1nonc1NC(=O)c1ccc(C(C)(C)C)cc1
35) Cn1c(=O)c2c(nc(Oc3ccc4c(c3)OCO4)n2Cc2ccc(Cl)cc2)n(C)c1=O
36) CCS(=O)(=O)Nc1ccc(-c2cc(-c3ccccc3)c3cc(C)ccc3n2)cc1
Compound	31	32	33	34	35	36
Rango-impB inh	5.1%	-2.6%	-0.9%	1.0%	-1.1%	?
Rango release inh	-2%	-2%	4%	-2%	-2%	?
GLA inh pH 4.5	·	·	1	0	6	11
miR-21 FLuc	-6%	1%	-14%	-47%	-7%	-2%

37) C=CCN1C(=O)/C(=C\c2ccc(Cl)cc2)N=C1SCC(=O)NC1CCCCC1
38) COCCNc1nc(N)c([N+](=O)[O-])c(NC2CCCCC2)n1
39) O=C(NCCCN1CCOCC1)c1ccc(Cl)c(S(=O)(=O)N2CCCCCC2)c1
40) Cc1ccc2oc(=O)c3cnn(CC(=O)NCCC(C)C)c3c2c1
41) CC(=O)Nc1ccc(NC(=O)C(C)NC(C)c2cccc3ccccc23)cc1 (stereo not given)
42) COc1ccc(NC(=O)CSc2nc3[nH]c(=O)cc(O)c3s2)c(OC)c1
Compound	37	38	39	40	41	42
Rango-impB inh	0.2%	-1.2%	3.9%	-3.1%	-3.9%	-2.3%
Rango release inh	11%	33%	-1%	1%	2%	-9%
GLA inh pH 4.5	7	·	3	5	·	·
miR-21 FLuc	1%	-31%	4%	-6%	-11%	·

43) Cc1ccc(OCC(=O)N(Cc2ccc(N(C)C)cc2)C2CCS(=O)(=O)C2)cc1C (stereo not given)
44) CC(=O)OCC[C@H](NS(=O)(=O)OCC(Cl)(Cl)Cl)c1ccccc1
45) COc1ccc(CN2C(=O)c3cccnc3C2=O)cc1S(=O)(=O)NC1CCCCC1C (stereo not given)
46) CCOC(=O)c1sc(/N=C/C2=C(O)CC(C)(C)CC2=O)c(C(=O)OCC)c1C
47) CCCNC(=O)c1c(Cl)cnn1-c1ccc(C)cc1
48) NNc1nc2ccc(Cl)cc2s1
Compound	43	44	45	46	47	48
Rango-impB inh	-1.7%	-2.9%	-0.2%	1.1%	-0.7%	-2.5%
Rango release inh	-4%	1%	1%	-7%	13%	-11%
GLA inh pH 4.5	-4	·	·	9	3	3
miR-21 FLuc	-3%	-4%	-2%	-58%	-69%	-39%

49) CCOc1ccc(NC(=O)CSc2nnc(CCNC(=O)c3ccc(OC)cc3)n2CC)cc1
50) Cc1ccc2nc(C)cc(C(=O)OCC(=O)Nc3cccnc3Cl)c2c1
51) CC(C)NCCCCOc1ccc(Br)cc1Cl
52) O=C(NCC1CC1)Nc1ccc(Cl)cc1
53) CCOc1ccc(C(=O)NCC(=O)NCCOc2ccc(C)cc2)cc1
54) CCOC(=O)C1=CNS(=O)(=O)NC1c1ccccc1 (stereo not given)
Compound	49	50	51	52	53	54
Rango-impB inh	-2.2%	-0.6%	1.3%	1.8%	0.0%	1.5%
Rango release inh	0%	0%	1%	0%	3%	-4%
GLA inh pH 4.5	-2	0	3	·	·	·
miR-21 FLuc	-5%	1%	-27%	-44%	0%	·

55) Cc1ccc(C2NC(=O)c3c(sc4c3CCN(C)C4)N2)s1 (stereo not given)
56) CC(=O)Nc1c2c(nn1-c1ccccc1)CS(=O)C2 (stereo not given)
57) CCOC(=O)C1(CCOc2ccccc2)CCN(Cc2ccc(OC)c(O)c2)CC1
58) COc1ccc(C(CNC(=O)c2ccc(S(=O)(=O)N3CCCC3)cc2)N2CCOCC2)cc1 (stereo not given)
59) CN(C)CCNC(C(=O)Nc1cc(Cl)cc(Cl)c1)c1ccccc1 (stereo not given)
60) COc1cc(/C=C2\CCCc3c2nc2ccccc2c3C(=O)O)cc(Br)c1O
Compound	55	56	57	58	59	60
Rango-impB inh	?	?	1.2%	-2.5%	-0.1%	?
Rango release inh	?	-5%	-4%	-13%	1%	?
GLA inh pH 4.5	25	·	·	5	-2	·
miR-21 FLuc	-23%	-5%	26%	7%	-13%	-10%

One compound at a time, as listed above. Order of values: Rango-impB inh	Rango release inh	GLA inh pH 4.5	miR-21 FLuc
Cc1ccc(C2NC(=O)c3c(sc4c3CCN(C)C4)N2)s1 (stereo not given) is listed as ?	?	25	-23%
CN(C)CCNC(C(=O)Nc1cc(Cl)cc(Cl)c1)c1ccccc1 (stereo not given) is listed as -0.1%	1%	-2	-13%
COc1ccc(C(CNC(=O)c2ccc(S(=O)(=O)N3CCCC3)cc2)N2CCOCC2)cc1 (stereo not given) is listed as -2.5%	-13%	5	7%
CC(=O)Nc1c2c(nn1-c1ccccc1)CS(=O)C2 (stereo not given) is listed as ?	-5%	·	-5%

The results go on.
61) COc1ccc(CN2CCN(Cc3ccccc3C(F)(F)F)CC2)c(OC)c1
62) C(=N\Nc1ncnc2sc3c(c12)CCC3)/c1cccs1
63) O=C(Nc1cc(-c2ccccc2)[nH]n1)c1ccccc1F
64) C=CCn1c(SCC(=O)c2ccc(Cl)s2)nc2ccccc2c1=O
65) Cc1nc(SCCO)c([N+](=O)[O-])[nH]1
66) O=C(CN1CCOCC1)Nc1ccc([N+](=O)[O-])cc1Br
Compound	61	62	63	64	65	66
Rango-impB inh	2.0%	·	-1.1%	2.9%	0.4%	0.4%
Rango release inh	3%	·	-1%	11%	-4%	-19%
GLA inh pH 4.5	·	4	-5	10	-3	0
miR-21 FLuc	0%	23%	-48%	-2%	0%	0%

67) CC(=O)c1ccc(NC(=O)CSc2nc(N)c3cc4c(nc3n2)CCCC4)cc1
68) O=C(O)c1cc(-c2ccc(/C=N/Nc3ccc([N+](=O)[O-])cn3)o2)ccc1Cl
69) CC1(C)CC2CC(C)(CN2C(=O)COC(=O)c2ccc(Cl)cc2N)C1 (stereo not given)
70) CCOC(=O)c1ccc[n+](CC(=O)c2ccc(OC)cc2)c1
71) CN=C1CC(C)(C)CC(=O)/C1=C(/O)CCCN1C(=O)c2ccccc2C1=O
72) CS(=O)(=O)N(CC(=O)NC1CCCC1)c1ccc(Oc2ccccc2)cc1
73) O=C(NCc1ccccc1)[C@H]1C[C@@H]1[C@H](NP(=O)(c1ccccc1)c1ccccc1)c1ccccc1
74) CC(C)(C)c1ccc(C(=O)NC(=S)NCC2CCCO2)cc1 (stereo not given)
Compound	67	68	69	70	71	72	73	74
Rango-impB inh	-2.4%	4.1%	1.5%	1.8%	-0.4%	5.1%	1.7%	5.3%
Rango release inh	-4%	?	-17%	-13%	-11%	0%	1%	1%
GLA inh pH 4.5	0	-9	-1	-5	-3	1	5&-4	0
miR-21 FLuc	-36%	-3%	-2%	2%	-1%	-7%	2%	-8%

Compound activity as filed in PubChem BioAssay.
